# Anaer choline gr: choline-fed anaerobic bacterial growth inhibition; Gram-negative bacterium anaerobic choline minimal medium, absorbance growth; active compounds read low; many inactives read as strong as hits in the columns shown; calls only; hit rate 0.2% among 55,000; AID 1963822;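 active = growth z-score on choline under -2 at 7 or 20 h with little or no fall on glycerol, limits in tiers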;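 note: stock transfer was 300 nL into about 50 µL; the organism is E. coli; final concentration not given here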
# Anaer choline gr early: second read-out of Anaer choline gr, no call of its own (marks repeat the call); z-score; measured here: choline growth z-score, timepoint 1;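 score of optical density at 7 h as mean of two plates; lower means less growth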
# Active calls of the source: *; i = inactive; + = active, no number; & = joins results of further samples. An excerpt; the hit share may differ from the screen's.
# Below each SMILES: Anaer choline gr	Anaer choline gr early
- O=C(NC1CC1)c1ccc(-c2nc(-c3ccc(Cl)cc3)no2)cc1
→ i	-0.29
- COc1ccc(NC(=O)c2nnc(C(=O)NCCc3c[nH]c4ccc(OC)cc34)s2)cc1
→ i	-2.3
- Cc1ccc(-c2ncc3c(=O)n(Cc4cccnc4)c(=O)n(C)c3n2)cc1
→ i	-0.7
- O=S(=O)(c1cccc2nsnc12)N1CCN(c2cc(-c3ccc(F)cc3)ncn2)CC1
→ i	-0.3
- COc1ccnc(CS(=O)c2nc3cc(OC(F)F)ccc3[nH]2)c1OC (stereo unspecified)
→ i	0.58&0.6
- Fc1ccc(-c2nn3c(CSc4ccccc4)nnc3s2)cc1
→ i	0.03
- COc1ccc(CNC(=O)c2ccc(CSc3nc4ccncc4n3Cc3cccc(C)c3)cc2)cc1
→ i	1.8
- COc1ccc(NC(=O)c2ccc(CN3CCc4ccccc4C3)cc2)c(OC)c1
→ i	0.82
- CCc1ccccc1NC(=O)CCS(=O)(=O)c1ccc2c(c1)NC(=O)CS2
→ i	-0.69
- CC(=O)Nc1ccc(-c2cc(C(=O)NC3CCCC3)c3cc(C)ccc3n2)cc1
→ i	0.4
- COc1ccc(-c2ncc3c(=O)n(CC(=O)NC4CCCCC4)c(=O)n(C)c3n2)cc1
→ i	0.7
- O=c1c2ccccc2n2c(=O)n(Cc3cccc(F)c3)nc2n1Cc1ccc(F)cc1
→ i	-0.5
- Cc1c(NS(=O)(=O)c2ccc(C(C)C)cc2)c(-n2cnnc2)nn1C
→ i	-0.35
- COC(=O)CSc1ncn(-c2nc(N(C)C)nc(N(C)C)n2)n1
→ i	0.04
- COC(=O)c1ccc(NC(=O)CSc2nnc(NC(=O)Nc3ccccc3)s2)cc1
→ i	0.82

# (cont.)
# Below each SMILES: Anaer choline gr	Anaer choline gr early
- O=C(c1ccc(Cn2c(SCc3ccc(F)cc3Cl)nc3ccncc32)cc1)N1CCCC1
→ i	-0.77
- CC1CCN(c2ccc(-c3noc(CCC(=O)N4CCN(C5CCCCC5)CC4)n3)cc2)CC1
→ i	1.9
- CCc1ccc(-n2nc(C)c3c2NC(=O)CC3C(=O)c2cc(C)sc2C)cc1 (stereo unspecified)
→ i	-0.27
- CCOC(=O)c1noc2nc(C)n(Cc3ccc(C(=O)OC)cc3)c(=O)c12
→ i	-0.68
- CCOc1ccc(S(=O)(=O)N2CCCC(C)(C(=O)NCc3ccc(F)cc3)C2)cc1 (stereo unspecified)
→ i	0.14
- Cc1nn(-c2ccccc2)c2sc(C(=O)OCc3ccc4c(c3)OCO4)cc12
→ i	0.8
- COc1cc(NC(=O)N2CCCC2c2cc(C(C)C)no2)cc(OC)c1OC (stereo unspecified)
→ i	1.6
- CC1CCN(CCCNC(=O)c2ccc3c(Cl)c4c(nc3c2)CCCC4)CC1
→ i	-1
- O=C1Nc2cc(S(=O)(=O)Nc3cccc(Cl)c3)ccc2SCC1CC(=O)N1CCCC1 (stereo unspecified)
→ i	-0.41
- CN1C(=O)Cc2cc(S(=O)(=O)CCC(=O)Nc3ccc(F)c(Cl)c3)ccc21
→ i	1.1
- O=C(C1CCN(c2nc3ccccc3n3cccc23)CC1)N1CCN(Cc2ccccc2)CC1
→ i	-0.19
- CCN(CCCc1ccccc1)CCCc1ccccc1
→ i	0.41&-1
- CCOCCCNC(=O)c1nnc(-c2oc3ccccc3c2C)o1
→ i	-0.8
- CCOC(=O)c1nc2ccccc2nc1Nc1cc(Cl)c(OC)cc1OC
→ i	-0.88
- Cc1cccc(C(=O)N2CCN(Cc3noc(-c4ccccc4)n3)CC2)c1C
→ i	1.1

# Later entries.
# Below each SMILES: Anaer choline gr	Anaer choline gr early
- Cc1cc(NC(=O)CSc2ccc(-n3cnc(C(=O)NC(C)C)c3)nn2)no1
→ i	0.03
- O=C(CCC(=O)N1Cc2ccccc2Oc2ncccc21)NCc1cccnc1
→ i	-0.74
- COc1ccc(CNC(=O)c2cccn2-c2nnc(N3CCOCC3)s2)cc1
→ i	-1.1
- O=C(Nc1ccc2nc(SCC(=O)N3CCCC3)sc2c1)C1CCCCC1
→ i	0.02
- Cc1ccc(-c2ccc(N3CCCC(C(=O)NC4CCCCC4)C3)nn2)cc1 (stereo unspecified)
→ i	2.3
- CC(C)N(CCCNC(=O)Nc1ccc(C(C)(C)C)cc1)CC1OC(n2cc(Br)c3c(N)ncnc32)C(O)C1O (stereo unspecified)
→ i	0.41
- O=C(O)c1ccccc1Nc1ccccc1
→ i	-0.4&-0.04
- CCCOc1ccc(-c2noc(Cc3nc(-c4ccc5c(c4)OCO5)cs3)n2)cc1
→ i	1.6
- Cc1ccc(C)c(N2CCN(C(=O)CN(C)S(=O)(=O)c3ccc4c(c3)nnn4C(C)C)CC2)c1
→ i	0.59
- Cc1ccc(/C=C/c2cc(=O)n3ccsc3n2)cc1
→ i	-0.27
- COc1cc(NC(=O)c2ccc(-n3nc(OCc4ccc(Cl)cc4)ccc3=O)cc2)cc(OC)c1
→ i	0.36
- CCc1c(C)nc(-n2nc(C)cc2NC(=O)c2ccc(F)c(F)c2)[nH]c1=O
→ i	0.45
- COc1cccc(-n2nnc3c(N4CCN(C(=O)C5CCCO5)CC4)ncnc32)c1 (stereo unspecified)
→ i	-0.82
- CNC(=O)c1c(-c2ccccc2)nc2n1CCS2(=O)=O
→ i	-1.9
- CC(=O)NC1(C(F)(F)F)C(=O)N(CC2CCCO2)C2=C1C(=O)CC(C)(C)C2 (stereo unspecified)
→ i	0.93

# (cont.)
# Below each SMILES: Anaer choline gr	Anaer choline gr early
- Cc1ccc2c(c1)-c1c(cnn1CC(=O)NCCCN1CCN(c3ccccc3)CC1)CO2
→ i	0.34
- COc1ccc(CCNC(=O)CN2C(=O)CCn3nc(-c4cccn4C)cc32)cc1OC
→ i	0.26
- c1nc2c(c(N3CCC(N4CCCCC4)CC3)n1)CCC2
→ +	-4.7*
- COC(=O)c1c(NC(=O)N2CCCC2c2ccccc2F)sc2c1CCCC2 (stereo unspecified)
→ i	0.27
- Cc1cccc(NC(=O)c2nnn(CC(=O)Nc3ccc(C(C)C)cc3)c2N)c1
→ i	0.09
- Cc1ccc(S(=O)(=O)NCc2cn3ccsc3n2)cc1
→ i	0.64
- CC(C)c1ccc(OCC(O)CN2C(=O)NC(C)(C)C2=O)cc1 (stereo unspecified)
→ i	0.05
- O=C(NCCc1ccc(Cl)cc1)c1cc2c(s1)CS(=O)(=O)C2
→ i	-0.33
- CC1CCCN(c2ccc(NC(=O)c3ccccc3Cl)c(C(=O)O)c2)C1 (stereo unspecified)
→ +	-1.3*
- Cc1nn(-c2ccc(-c3ccccc3)nn2)c(C)c1S(=O)(=O)NCc1ccc(F)cc1F
→ i	0.87
- COc1cc(OC)cc(C(=O)N2CCN(C(=O)c3cc4cc(Cl)ccc4[nH]3)CC2)c1
→ i	-0.17
- Cc1ccc(N(CC(=O)Nc2nccs2)S(=O)(=O)c2c(C)nn(C)c2C)cc1
→ i	-0.35
- O=C(Nc1ccc2c(c1)OCO2)c1c(-c2ccc(F)cc2)nc2n1CCS2(=O)=O
→ i	0.39
- COc1ccc(NC(=O)NC2COc3ccccc3C2)c(OC)c1 (stereo unspecified)
→ i	-2
- Cc1cc(NC(=O)N(C)CCc2c(C)nn(C)c2C)ccc1Br
→ i	-0.69

# Next section.
# Below each SMILES: Anaer choline gr	Anaer choline gr early
- COc1cc(OC)cc(C(=O)N(CCCN(C)C)c2nc3ccc(F)cc3s2)c1
→ i	1.1
- COC(=O)c1c(NC(=O)c2ccc3c(c2)CC(c2ccccc2)OC3=O)sc2c1CCC2 (stereo unspecified)
→ i	-0.29
- CCOCCCNC(=O)C(C)N1C(=O)CCCc2ccccc21 (stereo unspecified)
→ i	0.31
- Cc1ccc(NC(=O)Cn2cc(C(=O)c3ccc(C)cc3)c(=O)c3ccccc32)cc1
→ i	-0.69
- O=C(Cn1nc2c3sccc3ncn2c1=O)Nc1ccc(Br)cc1
→ i	-1.6
- COC(=O)c1cc2ccsc2n1CC(=O)Nc1cccc(OC)c1
→ i	2.2
- O=S(=O)(Nc1ccc(-c2noc(-c3ccc(Br)cc3)n2)cc1)c1cccs1
→ i	0.92
- NC(=O)CSc1nccn2nc(-c3ccccc3)cc12
→ i	1.4
- Cc1[nH]c(C(=O)N2CCC(CC(=O)NCc3ccco3)CC2)c(C)c1C
→ i	-2.3
- Cc1cccc(C(=O)N2CCc3cc(CNS(=O)(=O)c4ccc(F)c(Cl)c4)ccc32)c1
→ i	-0.6
- Cc1ccc(NS(=O)(=O)c2cn(C)cn2)c(C)c1
→ i	-0.19
- C=CCNC(=O)CN1C(=O)C2CCCCN2c2ccc(C(=O)N(C)C)cc21 (stereo unspecified)
→ i	0.26
- O=c1ccc(-c2ccccc2)nn1CCc1nc(-c2cccc(Cl)c2)no1
→ i	1.1
- CC1CCN(c2nc3ncnc(SCC(=O)NCCC4=CCCCC4)c3s2)CC1
→ i	-2.9
- CCOc1ccc(C(=O)c2oc3ccccc3c2NC(=O)c2ccc(Cl)cc2)cc1
→ i	1.1

# The results go on:
# Below each SMILES: Anaer choline gr	Anaer choline gr early
- CC1CCCN(C(=O)Cn2c(=O)c3ccccc3n3c(=S)sc(-c4ccccc4F)c23)C1 (stereo unspecified)
→ i	0.19
- Cc1ncc2c(n1)CCN(S(=O)(=O)c1cccc3nsnc13)C2
→ i	0.62
- CN1CC(=O)N(CC(=O)N2CCc3ccccc32)c2ccccc2C1=O
→ i	-0.64
- O=C(Nc1ccc2c(c1)OCO2)c1nnc(C2CCN(S(=O)(=O)c3ccccc3Cl)CC2)s1
→ i	1.9
- Nc1nc(NC2CC2)c2ncn([C@H]3C=C[C@@H](CO)C3)c2n1
→ i	0.33
- O=C(O)C1CCCNC1 (stereo unspecified)
→ i	0.24
- O=S(=O)(NC1CCCC1)c1cccc(-c2nc(-c3ccccc3)no2)c1
→ i	-0.7
- O=C(Nc1cccc(F)c1)N1CCN(Cc2cc(=O)n3nc(-c4cccc(F)c4)sc3n2)CC1
→ i	1.1
- CCOC(=O)c1c(NC(=O)CSc2nnc(CNC(=O)c3ccc(OC)cc3)n2C)sc2c1CCC2
→ i	-0.32
- Cc1ccc(OCC(=O)NCC(=O)OCc2cc(=O)n3nc(C(C)C)sc3n2)cc1
→ i	0.62
- O=C(Cn1c(=O)oc2ccccc21)Nc1sc2c(c1C(=O)O)CCCC2
→ i	-0.05
- Cn1c(CN(c2ccc(F)cc2)S(C)(=O)=O)nnc1SCC(=O)N1CCc2ccccc21
→ i	-0.46
- O=C(CCc1nc(-c2cc3ccccc3[nH]c2=O)no1)Nc1nccs1
→ i	-0.09
- COC(=O)c1ccccc1NC(=O)N1CCN(c2ccc(=O)n(-c3ccc(F)cc3)n2)CC1
→ i	0.45
- Cc1cc(C)c(S(=O)(=O)Nc2cc(C(=O)O)cnc2N2CCC(N3CCCCC3)CC2)cc1C
→ i	-0.19

# The list continues.
# Below each SMILES: Anaer choline gr	Anaer choline gr early
- Cc1nnc(Nc2ccc(F)cc2)[nH]c1=O
→ i	-0.07
- O=c1oc2c(O)c(O)ccc2c2c1CCCC2
→ i	-1.2
- Cc1ccc(-c2noc(-c3ccccc3OCC(=O)Nc3nccs3)n2)cc1
→ i	0.57
- O=C(CN1C(=O)C2CCCCN2c2ccc(C(=O)N3CCCCC3)cc21)Nc1nccs1 (stereo unspecified)
→ i	1.6
- COc1ccc(Cl)cc1NC(=O)Cn1ncn2nc3c(c2c1=O)CCCC3
→ i	1
- CCN(CC)c1ccc(/C=N/NC(=O)c2ccc(O)cc2)cc1
→ i	-0.35
- Cc1c(NC(=O)COCc2cc(-c3ccc4c(c3)OCO4)on2)c(=O)n(-c2ccccc2)n1C
→ i	-2.3
- COC(=O)c1c(C)[nH]c(C(=O)N2CCCC(C(=O)N3CCN(C4CCCCC4)CC3)C2)c1C (stereo unspecified)
→ i	-1.2
- COc1ccc(-c2cc(C)no2)cc1S(=O)(=O)NC1CCN(Cc2ccccc2)CC1
→ i	-0.4
- COc1ccc(NS(=O)(=O)c2cc(-c3nnc(C(=O)N4CCCC4)o3)cs2)cc1OC
→ i	0.09
- O=c1c2c([nH]c3ccc(Cl)cc13)CCN(Cc1ccc(F)cc1)C2
→ i	-0.96
- O=C(NCCn1c(-c2ccccc2)nc2cccnc21)c1ccc(Cl)cc1
→ i	-0.65
- CO[C@]12C[C@@H](COC(=O)c3cncc(Br)c3)CN(C)[C@@H]1Cc1cn(C)c3cccc2c13
→ i	0.34&0.16
- Cc1cc(-n2ccnc(NCc3ccc4c(c3)OCO4)c2=O)ccc1Br
→ i	-0.91
- O=S(=O)(c1cc(F)ccc1F)N1CCN(c2ncnc3c2nnn3-c2ccc(F)cc2)CC1
→ i	-0.8

# Other structures:
# Below each SMILES: Anaer choline gr	Anaer choline gr early
- Cc1cc(C2CCCN2C(=O)c2c(Cl)cnn2C)on1 (stereo unspecified)
→ i	-0.28
- COc1cccc(-c2[nH]ncc2CN2CCCC2c2cc(C)on2)c1 (stereo unspecified)
→ i	0.21
- CC(C)Cn1c(=O)c(-c2ccc(C(=O)N3CCN(C)CC3)cc2)nc2ccccc21
→ i	-0.71
- COc1ccc(OC)c(NC(=O)Nc2cccc(-c3noc(C4CCC4)n3)c2)c1
→ i	0.95
- CCOc1ccc(C(=O)NCc2noc(-c3cccc(Cl)c3)n2)cc1
→ i	1.6

# Of the compounds above, 6 have bromine.
# Below each SMILES: Anaer choline gr	Anaer choline gr early
- CC(C)N(CCCNC(=O)Nc1ccc(C(C)(C)C)cc1)CC1OC(n2cc(Br)c3c(N)ncnc32)C(O)C1O (stereo unspecified)
→ i	0.41
- Cc1cc(NC(=O)N(C)CCc2c(C)nn(C)c2C)ccc1Br
→ i	-0.69
- O=C(Cn1nc2c3sccc3ncn2c1=O)Nc1ccc(Br)cc1
→ i	-1.6
- O=S(=O)(Nc1ccc(-c2noc(-c3ccc(Br)cc3)n2)cc1)c1cccs1
→ i	0.92
- CO[C@]12C[C@@H](COC(=O)c3cncc(Br)c3)CN(C)[C@@H]1Cc1cn(C)c3cccc2c13
→ i	0.34&0.16
- Cc1cc(-n2ccnc(NCc3ccc4c(c3)OCO4)c2=O)ccc1Br
→ i	-0.91

# Compound activity deposited in PubChem BioAssay by ICCB-Longwood Screening Facility, Harvard Medical School.
